Source: PubChem BioAssay
Sa growth inh = S. aureus growth inhibition at 42 and 30 °C, primary screen, LtaS inhibitor project, RN4220, two temperatures; 0.53% of 170,000 active; OD600, 20 h, 42 °C; stronger effect = lower value; AID 720641, 2013; relative growth, % (no concentration beside the values);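 active means growth at 42 °C up to 50% and 20 or more points under that at 30 °C, or under 10% at both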;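 further: 300 nL library stock went into each well; scaled to the means of positive and negative controls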
HCMV NEC inh = inhibitors of HCMV UL50-UL53 interaction, biochemical, HTRF | HCMV UL50-UL53 nuclear egress complex (human cytomegalovirus) | normalized percent inhibition | inhibition, % (no concentration beside the values) | 0.15% of 190,000 active;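 active means both replicates at 50% or more, plus weaker picks with an unusually low signal ratio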;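 further: stock transfer was 100 nL into about 20 µL; 0% = negative control wells and 100% = wells with untagged competitor protein; inactives centre near -12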
GIV-Gai inh = inhibitors of GIV peptide binding to Galpha-i3, primary screen, biochemical, fluorescence polarization, FITC-GIV GBA peptide, rat Galphai3; Guanine nucleotide-binding protein G(i) subunit alpha-3 (Rattus norvegicus), P08753; 90 min; stronger effect = lower value; scaled: aluminum fluoride 0%, vehicle 100%; percent of control (FP), % (test concentration not listed); 0.42% of 210,000 active; AID 1224905, 2016;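 active means replicate mean at 85% of control or lower, very high polarization wells dropped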;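 further: wells of about 15 µL received 100 nL stock; the first replicate is given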
Target sequence (P08753 whole entry, looked up): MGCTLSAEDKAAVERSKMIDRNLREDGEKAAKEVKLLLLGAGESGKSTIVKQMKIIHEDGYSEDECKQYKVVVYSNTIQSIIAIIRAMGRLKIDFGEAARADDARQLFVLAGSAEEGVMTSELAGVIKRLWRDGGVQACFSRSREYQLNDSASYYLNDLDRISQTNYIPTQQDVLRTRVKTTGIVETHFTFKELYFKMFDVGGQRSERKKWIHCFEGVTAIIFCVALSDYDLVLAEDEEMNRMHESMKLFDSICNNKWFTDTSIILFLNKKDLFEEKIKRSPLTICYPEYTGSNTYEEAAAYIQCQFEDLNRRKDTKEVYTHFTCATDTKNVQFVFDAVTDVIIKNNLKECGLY
Sa growth inh second temp = further read-out of Sa growth inh, marked with its call; relative growth, %; measured here: growth at 30 °C;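 optical density after 20 h as mean of two plates; 100% = untreated growth and lower means inhibition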
Numbers without * were called inactive; / = not tested or not shown; & = joins results of further samples. Compounds as they come; 0.79% or so of the library scored in one or more.

(1) CCCCOc1c(Cl)cc(CNC(C)(C)CO)cc1OCC
(2) CCc1ccccc1NC(=O)Nc1nnc(N2CCCC2)s1
(3) CC(C)(C)C1C/C(=C/c2ccccn2)C(=O)/C(=C/c2ccccn2)C1 (stereo not given)
(4) CN1C(C(=O)N2CCCc3ccccc32)=CC(c2cccs2)=NS1(=O)=O
(5) NCc1ccc(S(N)(=O)=O)cc1
(6) CC1CC(=O)Nc2ccccc2N1S(=O)(=O)c1cccs1 (stereo not given)
(7) Cc1ccc(S(=O)(=O)/N=C/c2cccnc2)cc1
(8) CCOC(=O)c1sc2nc(COC(=O)c3ccc(OCc4c(C)noc4C)cc3)[nH]c(=O)c2c1C
Screen / compound no.	1	2	3	4	5	6	7	8
Sa growth inh	104	127	104	102	96	112	95	106
Sa growth inh second temp	97	97	92	82	89	93	115	105
HCMV NEC inh	-13	-18	/	/	7&-10&-36	-3	4	1
GIV-Gai inh	108	105	100	100	/	102	102	/

(9) COCC(C)NC(=O)c1cc(-c2ccc(OC)c(OC)c2)no1 (stereo not given)
(10) CCOC(=O)C(N)CSC1CC(=O)N(c2ccccc2)C1=O (stereo not given)
(11) CSc1ccc(CCNC(=O)C2CCN(c3nc4ccccc4nc3C(F)(F)F)CC2)cc1
(12) Cc1ccc(S(=O)(=O)N2CCN(S(=O)(=O)c3cccs3)CC2)cc1
(13) CC(=O)c1c(C)oc2c(Cl)cc(NS(=O)(=O)c3cc(C)c(C)cc3C)cc12
(14) O=C(OCCN1C(=O)c2ccccc2C1=O)c1c2c(nc3ccccc13)CCC2
(15) CC1CCc2c(sc3nc(CCC(=O)NCCc4c[nH]c5ccccc45)[nH]c(=O)c23)C1 (stereo not given)
(16) CC(C)(C)OC(=O)N1CCN(CCNC(=O)c2ccccc2)CC1
Screen / compound no.	9	10	11	12	13	14	15	16
Sa growth inh	98	103	99	99	104	80	/	122
Sa growth inh second temp	85	83	89	102	103	78	/	90
HCMV NEC inh	-18	3	/	-15	7	-42	6	-2
GIV-Gai inh	99	104	99	106	103	/	101	105

(17) Cc1ccc(S(=O)(=O)NCC(=O)O)c2nsnc12
(18) Cn1c(=O)c2c(nc(NCc3ccccc3)n2Cc2ccccc2)n(C)c1=O
(19) COc1ccc(CC(=O)Cn2c(SCc3ccc(F)cc3)nc3ccncc32)c(OC)c1
(20) O=C(CSc1ncn[nH]1)c1cccc(C(F)(F)F)c1
(21) Cc1nc2ccccc2c2nc(N)nn12
(22) CCOc1ccc2c(c1)c1nnc(-c3ccccc3)c-1cn2Cc1ccccc1
(23) CCOC(=O)c1sc(SC#N)c(-c2ccccc2)c1N
(24) Cc1ccc(C)c(S(=O)(=O)c2nnn3c2nc(NCCC(C)C)c2ccccc23)c1
Screen / compound no.	17	18	19	20	21	22	23	24
Sa growth inh	/	120	99	101	110	/	1.1*	102
Sa growth inh second temp	/	79	77	85	86	/	0.3*	91
HCMV NEC inh	-88	-28	4	-4	-10	-34	-8	/
GIV-Gai inh	105	103	99	/	98	71*	/	101

(25) Cc1cc2c(cc1Cl)N(C(=O)Nc1ccnc3ccccc13)CC2
(26) Cc1ccc(S(=O)(=O)N2CCCC(c3nc(-c4ccccc4Cl)no3)C2)cc1 (stereo not given)
(27) Cc1ccc(CCN2CC(C(=O)NC3CCCCC3)CC2=O)cc1 (stereo not given)
(28) CC(C)C(CC(=O)O)NS(=O)(=O)c1ccc(F)cc1 (stereo not given)
(29) CC1CC(Sc2nnc(-c3cccs3)n2C2CC2)C(=O)O1 (stereo not given)
(30) COc1cc(NC(=O)CSc2nc3ccccc3nc2Cc2ccc(Cl)cc2)cc(OC)c1
(31) O=C(CSc1ccccc1C(=O)Nc1ccnn1Cc1cccs1)NCc1ccco1
(32) CC(C)c1ccc(NC(=O)CSc2n[nH]c(=O)n2C(C)c2ccccc2)cc1 (stereo not given)
Screen / compound no.	25	26	27	28	29	30	31	32
Sa growth inh	/	/	96	107	92	122	91	134
Sa growth inh second temp	/	/	93	85	91	106	87	101
HCMV NEC inh	-11	-13	-29	/	-19	/	9	22
GIV-Gai inh	94	102	106	101	/	101	/	103

(33) Cc1cc(C)nc(NS(=O)(=O)c2ccc(NC(=O)c3cccc4ccccc34)cc2)n1
(34) O=C(Nc1ccc(Br)cc1)c1ccc(Br)c(S(=O)(=O)NCc2ccccc2)c1
(35) Cc1cc(N)ccn1
(36) CCOc1ccc(NC(=O)NCCN2CCN(c3ccccc3F)CC2)cc1
(37) CN(C)c1ccc(/C=C2/C=C(c3ccccc3)OC2=O)cc1
(38) COc1nc(C)ccc1-c1noc(-c2ccc(C)cc2)n1
(39) COCCN1C(=O)c2oc3ccc(C)cc3c(=O)c2C12C(=O)N(C)c1ccccc12 (stereo not given)
(40) c1ccc2[nH]c(CN3CCOCC3)nc2c1
Screen / compound no.	33	34	35	36	37	38	39	40
Sa growth inh	/	66	83	92	90	99	109	103
Sa growth inh second temp	/	84	108	81	85	72	92	68
HCMV NEC inh	-30	/	6	-9	-29	-8&-14	-21	-3
GIV-Gai inh	97	101	/	106	102	106&98	98	/

(41) Cn1c(=O)c2sccc2n2c(CCCC(=O)NCCc3ccc(S(N)(=O)=O)cc3)nnc12
(42) CN1C(=O)c2cc3ccccc3n2CC1(C)C(=O)NCC(=O)NCCCN1CCCC1=O (stereo not given)
(43) N#Cc1cc(C#N)c(SCc2ccc(Cl)cc2)nc1N
(44) O=C(CN1C(=O)/C(=C/c2ccccc2F)Sc2ccccc21)NCc1ccc2c(c1)OCO2
(45) CCOC(=O)N1CCC(N/C=C(\C#N)S(=O)(=O)c2ccc(Cl)cc2)CC1
(46) O=C(NCCc1c[nH]c2ccccc12)c1ccc(N2CCCC2)c(S(=O)(=O)N2CCCC2)c1
(47) O=C(Nc1ccc(C(F)(F)F)cc1)c1ccc2c(c1)CCO2
(48) CCOC(=O)c1c(Cc2cccc(C)c2)c[nH]c1-c1ccccc1
Screen / compound no.	41	42	43	44	45	46	47	48
Sa growth inh	/	/	101	109	97	/	87	66
Sa growth inh second temp	/	/	93	99	89	/	90	58
HCMV NEC inh	-8	-13	24	/	-14	2	27	/
GIV-Gai inh	98	106	113	104	103	106	109	103

More records:
| # | Structure | Sa growth inh | Sa growth inh second temp | HCMV NEC inh | GIV-Gai inh |
| --- | --- | --- | --- | --- | --- |
| 49 | c1ccc2c(c1)CCN2Cn1nnc2ccccc21 | 90 | 87 | -13 | 112 |
| 50 | COc1ccc(OC)c(C2NC(=O)NC(C)=C2C(=O)OCCCBr)c1 (stereo not given) | / | / | -9 | 105 |
| 51 | CN(CCc1ccccn1)C(=O)c1sc2ccccc2c1Cl | 89 | 84 | -18 | 103 |
| 52 | Cc1nc2cccnc2n1-c1cccc(C(=O)N2CCN(c3ccc(Cl)cc3)CC2)c1 | 104 | 59 | / | 102 |
| 53 | COc1ccc(NC(=O)c2oc3ccccc3c2NC(=O)C23CC4CC(CC(C4)C2)C3)cc1 | 96 | 102 | 5 | 102 |
| 54 | COc1ccc(CNC(=O)c2ccc(NC(=O)N3CCSc4ncccc43)cc2)cc1OC | 107 | 89 | / | 109 |
| 55 | CCCOc1ccc(NC(=O)CC2C(=O)N(c3cccc(C)c3)C(=O)N2CCc2ccncc2)cc1 (stereo not given) | 122 | 72 | / | 105 |
| 56 | O/N=C/C1=C(Cl)c2ccccc2CC1 | / | / | -16 | 103 |
| 57 | CC(C)Cn1cc(NC(=O)N(C)Cc2ccco2)c2ccccc2c1=O | 106 | 91 | -34 | 100 |
| 58 | COc1ccc(-c2nc(Cn3c(=O)cc(-c4ccccc4)c4c(C)nn(C)c43)c(C)o2)cc1OC | 95 | 93 | / | 107 |
| 59 | Cn1nc(-c2ccc(C=N/C(C#N)=C(\N)C#N)s2)cc1C(F)(F)F | 84 | 64 | -10 | 104 |
| 60 | Fc1ccc(N=C(CN2CCCCC2)N2CCCCC2)cc1 | 102 | 85 | -46 | 104 |
| 61 | CCOCCCNC(=O)Nc1ccc2nc3n(c(=O)c2c1)CCCC3 | / | / | -22 | 97 |
| 62 | COc1ccc(C(=O)Nc2nc3n(n2)C(c2ccccc2)C=C(c2ccccc2)N3)cc1 (stereo not given) | 106 | 74 | / | 139 |
| 63 | CCOC(=O)c1ccccc1NC(=O)N1CCC(c2nc(-c3ccccc3)no2)CC1 | / | / | -17 | 103 |
| 64 | CCCCNC(=O)C1CCCN1S(=O)(=O)c1cccc2nsnc12 (stereo not given) | 90 | 97 | -76 | 95 |
| 65 | CC(C)c1ccc(OCC(=O)Nc2noc(-c3ccc(Cl)cc3)n2)cc1 | / | / | -9 | 100 |
| 66 | COc1cccc(N2CCN(S(=O)(=O)c3ccc(CN4C(=O)c5cccnc5C4=O)s3)CC2)c1 | 98 | 88 | -31 | 103 |
| 67 | CC1CCN(S(=O)(=O)c2cc(-c3ccc(=O)[nH]n3)ccc2Cl)CC1 | / | / | -24 | 101 |
| 68 | CSc1c(C#N)c(-c2ccccc2)nn1CC(=O)NN | 101 | 90 | -23 | 102 |
| 69 | Cc1cc(CSc2nnc(NC3CC3)s2)no1 | 99 | 84 | -12 | / |
| 70 | CC1(C)CC(=O)c2cc(-c3nc(-c4ccc(Cl)cc4)cs3)c(=O)[nH]c2C1 | 97 | 88 | -14&17 | 104&109 |
| 71 | O=C(NCCc1ccncc1)Nc1ccc(Cl)cc1 | 111 | 66 | -6 | / |
| 72 | COc1cccc(-c2nc(CS(=O)(=O)CC(=O)NCCc3ccc(Cl)cc3)c(C)o2)c1 | 101 | 93 | -22 | 107 |
| 73 | CC(O)c1ccc(N(C)C)c2c(N(C)C)cccc12 (stereo not given) | 124 | 87 | -20 | / |
| 74 | O=C(Nc1ccc(F)cc1)C1c2ccccc2Oc2ccccc21 | 105 | 90 | -14 | 98&96 |
| 75 | CN(C)c1ccc(NC(=O)COC(=O)C2=NNC(=O)CC2)cc1 | 107 | 95 | -6 | / |
| 76 | O=C(COC(=O)c1ccc(F)cc1Cl)c1ccc(Br)cc1 | 98 | 85 | -10 | / |
| 77 | Cc1[nH]c2ccccc2c1C1=CCN(S(=O)(=O)c2cccc3nsnc23)CC1 | 108 | 92 | -19&-60 | 109&102 |
| 78 | Cc1c(CNC(C)CCc2ccccc2)c(C(=O)O)c(C)n1Cc1ccc(F)cc1 (stereo not given) | 101 | 96 | -28 | 101 |
| 79 | N#Cc1ccc(/C=N/NC(=S)Nc2ccc(S(=O)(=O)N3CCOCC3)cc2)cc1 | 104 | 94 | -25 | / |
| 80 | Cc1ccc(-c2csc(=Nc3ccccc3)n2CCCN(C)C)cc1 | 94 | 83 | / | 100 |
| 81 | CCOc1ccc(S(=O)(=O)NCCc2csc3nc(-c4ccc(OC)c(OC)c4)nn23)cc1 | 108 | 87 | / | 97 |
| 82 | CCc1ccc(CNC(=O)c2cccc(-n3cnc4cccnc43)c2C)cc1 | 125 | 96 | / | 108 |
| 83 | C(=Nc1ccc2ccccc2c1)Nc1ccc2ccccc2c1 | 101 | 92 | 1 | 109 |
| 84 | CC1CC(C)CN(C(=O)NC2(C(F)(F)F)Oc3ccc(Cl)cc3O2)C1 (stereo not given) | 94 | 88 | -27 | 105 |
| 85 | CCOC(=O)c1c(S(=O)(=O)N2CCCC(C(=O)NCc3ccc(F)cc3)C2)c(C)n(CC)c1C (stereo not given) | 106 | 99 | / | 104 |
| 86 | COc1ccc(C2CC(=O)N(c3ccc(F)c(F)c3)C(=O)C2)cc1 | / | / | 7 | 104 |
| 87 | CCCCNC(=O)C1CCN(S(=O)(=O)CC)CC1 | 87 | 77 | -26 | 101 |
| 88 | COC(=O)c1sc2ncn3c(SCC(=O)Nc4ccc(F)cc4)nnc3c2c1C | / | / | -28 | 127 |
| 89 | CCC(=O)N1CCc2cc(Br)cc(S(=O)(=O)N3CCN(c4cccc(Cl)c4)CC3)c21 | 102 | 90 | -16 | 103 |
| 90 | COc1ccc(C2NS(=O)(=O)N=C2N)cc1 (stereo not given) | 65 | 98 | -8 | 104 |
| 91 | CCOC(=O)c1ccc(CSc2nnc3cc(C)c4ccccc4n23)cc1 | 94 | 91 | -8 | 109 |
| 92 | Cc1cc(NC(=O)C(C)SCC(=O)O)no1 (stereo not given) | 91 | 96 | -2 | / |
| 93 | O=C(c1nc2ccccc2[nH]1)N1CCOCC1 | 114 | 85 | -22 | / |
| 94 | CCN(CC)C(=O)Cn1c(=O)n(CC2CCC(C(=O)N(CC)CC)CC2)c(=O)c2sccc21 (stereo not given) | / | / | -17 | 99 |
| 95 | Cc1cc(NC(=O)COc2ccccc2)cc(-c2nc3ccccc3o2)c1O | 94 | 93 | -1 | 102 |
| 96 | CCOc1ccc(NC(=O)c2c(C)oc3ccc(OCC)cc23)cc1 | / | / | 4 | 104 |
| 97 | CCOC(=O)/C(C#N)=C/c1cc(C(=O)OCC)c(N)s1 | 96 | 94 | -5 | / |
| 98 | COc1ccccc1-c1c(C)nn2c(SCC(=O)NCc3ccccn3)cc(C)nc12 | / | / | 14 | 102 |
